# Six1-Eya2 inh: Six1/Eya2 interaction inhibition; Q15475+O00167; AlphaScreen GST-Six1/His-Eya2 binding, biochemical; active compounds read low; control for the full effect not named in the record; activity change, % (no concentration beside the values); 360,000 compounds, 0.56% hits; AID 651725; in the data active = activity change below about -65%; inconclusive = about -30% to -65%; inactive = above about -30%; further: on the % scale 0 is the no-effect control and ±100 the full control effect
# Target sequence (O00167 whole entry, looked up): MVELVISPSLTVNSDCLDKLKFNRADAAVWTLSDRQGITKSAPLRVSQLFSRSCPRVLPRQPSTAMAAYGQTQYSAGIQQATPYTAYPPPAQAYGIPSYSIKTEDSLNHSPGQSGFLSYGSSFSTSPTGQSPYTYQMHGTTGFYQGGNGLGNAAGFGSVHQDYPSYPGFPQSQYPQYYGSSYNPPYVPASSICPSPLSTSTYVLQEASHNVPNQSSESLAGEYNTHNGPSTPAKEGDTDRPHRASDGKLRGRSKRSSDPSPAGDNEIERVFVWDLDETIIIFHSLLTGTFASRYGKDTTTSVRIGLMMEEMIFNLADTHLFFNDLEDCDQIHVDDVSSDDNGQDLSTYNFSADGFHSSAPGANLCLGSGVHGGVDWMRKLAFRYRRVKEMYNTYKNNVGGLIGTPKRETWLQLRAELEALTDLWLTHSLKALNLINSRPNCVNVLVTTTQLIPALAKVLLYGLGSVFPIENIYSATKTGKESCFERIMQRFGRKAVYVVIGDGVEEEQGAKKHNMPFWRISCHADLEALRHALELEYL
# Target sequence (Q15475 whole entry, looked up): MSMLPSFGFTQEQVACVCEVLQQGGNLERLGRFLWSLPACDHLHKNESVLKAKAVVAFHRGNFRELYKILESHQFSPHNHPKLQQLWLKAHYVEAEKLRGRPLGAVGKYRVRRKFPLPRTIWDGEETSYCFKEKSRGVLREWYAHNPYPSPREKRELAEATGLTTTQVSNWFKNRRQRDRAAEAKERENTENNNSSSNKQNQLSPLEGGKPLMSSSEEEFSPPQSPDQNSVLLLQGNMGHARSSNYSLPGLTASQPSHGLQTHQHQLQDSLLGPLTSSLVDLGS
#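 AlphaScreen luminescence read after one hour at 37 °C in darkness. Pin-transferred compounds met GST-Six1 and His-Eya2 protein (5X stock 250 nM/500 nM) plus glutathione donor and Ni-chelate acceptor beads (5X, 50 ug/mL).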
# PINK1 expr mod: modulators of PINK1 expression; PINK1 immunofluorescence, high-content cytometry, 24 h; Potency, µM (series often up to 76.6 µM), for inactives: at the top dose activation (PINK1 increase), most hits filed as activators; 410,000 compounds, 0.2% hits; AID 624263; active = well fitted activation curve with a large enough effect; inconclusive = small, poorly fitted or top-dose-only effect; inactive = flat fitted curve, though single readings scatter; cell line not stated here;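 further: potency means the concentration at half of the fitted maximal effect; % of control where 0% means no effect; nearly all actives have a fitted effect of over 65% in size; a mitochondrial uncoupler was the plate control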
#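 Cells are seeded, rested 12 hours, then given compound at five concentrations or DMSO for 24 hours. After fixation, blocking and antibody staining, PINK1 amount and mitochondrial localization are scored; CCCP serves as control.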
# D2 ag: activates the human D2 dopamine receptor | P14416 | DiscoveRx PathHunter D2 beta-arrestin, luminescence, 90 min; 100% = 57 uM dopamine signal | activation, % (test concentration not listed) | 360,000 compounds, 0.084% hits; in the data active = activation above about 40%; inconclusive = about 15% to 40%; inactive = below about 15%; further: compound concentration not given in the record; the text of the record calls up to 30% inactive
#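 DiscoveRx PathHunter D2 beta-arrestin cells (2,100/well) attached overnight, then compound-stimulated 90 min at 37 C in HBSS/10 mM HEPES/0.1% Tween-20 buffer; beta-galactosidase complementation read by luminescence after 1 h at ambient temperature. Dopamine 57 uM final (EC100) as control.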
# CtBP-E1A inh: inhibitors of CtBP/E1A interaction; AlphaScreen GST-E1A/His-CtBP binding, 1536-well; active compounds read low; control for the full effect not named in the record; AID 651724; 340,000 compounds, 0.49% hits; activity change, % (concentration not given with the values); in the data active means activity change below about -65%; inconclusive means about -30% to -65%; inactive means above about -30%; further: on the % scale 0 is the no-effect control and ±100 the full control effect
#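 AlphaScreen with 125 nM GST-E1A and 125 nM His-CtBP (5X stocks) in Tris pH 8.0, 300 mM NaCl, BSA, Tween 20, TCEP. Compounds preincubated 2 h at 37 deg C, then glutathione donor/nickel acceptor beads added for 1 h at 37 deg C in dark.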
# TRPML1 blocker: inhibitors of human TRPML1 channel; 390,000 compounds, 0.02% hits; TRPML1-inducible cells, Ca2+ dye fluorescence, FDSS; active compounds read low; inhibition of EC80 agonist-evoked calcium signal; activity change, negative = inhibition, % (concentration not given with the values); in the data active means activity change below about -50%; inconclusive means about -30% to -50%; inactive means above about -30%;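 further: stimulus is agonist 54-4 at its EC80 concentration; on the % scale 0 is the no-effect control and ±100 the full control effect; the text of the record puts the active cut at -80%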
#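 Tet-induced TRPML1-DL cells loaded with Ca8 no-wash calcium dye were read kinetically on FDSS. Compound addition was followed by EC80 agonist 54-4 (4 uM final); inhibition was read over 110 s.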
# TRPML1 agonist: human mucolipin-1 channel agonism. Q9GZU1. TRPML1-expressing cells, Ca2+ dye fluorescence, FDSS; host cell line not named in the record; reference of the full effect not given here. activation, % (concentration not given with the values). 410,000 compounds, 0.12% hits; in the data active = activation above about 50%; inconclusive = about 30% to 50%; inactive = below about 30%; further: 0% is about no effect; the text of the record puts the active cut at 80%
#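 TRPML1-DL cells, Tet-induced overnight (~16 h, 37 degrees C), loaded 45-90 min at room temperature with Ca8 no-wash calcium dye plus quencher. FDSS fluorescence: 10 s baseline, compound pin-transfer, 110 s agonist read, then EC80 54-4 (4uM final) and 110 s antagonist read.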
# The depositor's hits bear a star; ? = inconclusive; . = not tested or not shown; & = joins results of further samples; [ ] = another dose, or the depositor's remark.
# Start of the data: the first four records as a preview:
SMILES,Six1-Eya2 inh,PINK1 expr mod,D2 ag,CtBP-E1A inh,TRPML1 blocker,TRPML1 agonist
O=CNC(n1cnc2c(N3CCOCC3)ncnc21)C(Cl)(Cl)Cl (configuration not stated),1,0.3%,-2.9,.,2,-0.6
O=C(Nc1ccc(OCC(=O)N2CCOCC2)cc1)c1cc(F)c(F)cc1Cl,-2,-0.4%,-4.2,2,31,0.7
CCCCCOC(=O)CSc1nc2sc3c(c2c(=O)n1Cc1ccccc1)CC(C)(C)OC3,.,2.8%,.,.,-1,1.3
C[C@@H]1CN([C@H](C)CO)C(=O)c2cc(C#CC(C)(C)O)cnc2O[C@@H]1CN(C)C(=O)C1CC1,-2,2.0%,0.0,5,.,.

# The list itself, from the first entry:
SMILES,Six1-Eya2 inh,PINK1 expr mod,D2 ag,CtBP-E1A inh,TRPML1 blocker,TRPML1 agonist
O=CNC(n1cnc2c(N3CCOCC3)ncnc21)C(Cl)(Cl)Cl (configuration not stated),1,0.3%,-2.9,.,2,-0.6
O=C(Nc1ccc(OCC(=O)N2CCOCC2)cc1)c1cc(F)c(F)cc1Cl,-2,-0.4%,-4.2,2,31,0.7
CCCCCOC(=O)CSc1nc2sc3c(c2c(=O)n1Cc1ccccc1)CC(C)(C)OC3,.,2.8%,.,.,-1,1.3
C[C@@H]1CN([C@H](C)CO)C(=O)c2cc(C#CC(C)(C)O)cnc2O[C@@H]1CN(C)C(=O)C1CC1,-2,2.0%,0.0,5,.,.
COc1cc(NC(=O)CC(C)S(=O)(=O)c2cc3c4c(c2)CCN4C(=O)CC3)cc(OC)c1 (configuration not stated),.,1.2%,.,.,-9,-0.7
COc1ccc(S(=O)(=O)CCC(=O)Nc2c(C)cccc2C)cc1,3,0.6%,-1.8,8,.,.
CC(C)(C)c1ccc(C(=O)Nc2ccc(C(=O)NCc3cccnc3)cc2)cc1,1,1.9%,-3.0,-5,0,3.0
Cc1cc(C)c(NC(=O)Nc2ccc3c(c2)OCO3)c(C)c1,3,-0.5%,-0.7,-22,?,-0.4
COc1cccc(CNC(=O)Cn2c(=O)oc3cc(S(=O)(=O)N4CCC(C)CC4)ccc32)c1,.,1.9%,.,.,9,-0.1
CC(C)C(c1nnnn1C1CCCC1)N1c2ccccc2CC1C (configuration not stated),3,4.2%[38.3 µM],-2.8,6,-2,1.1
Cc1ccc(/C(O)=C2\C(=O)C(=O)N(CCc3c[nH]c4ccccc34)C2c2cccnc2)cc1 (configuration not stated),-5,-0.2%,-2.3,-6,2,0.2
C(=C\c1ccccc1)/CN1CCN(C(c2cccs2)c2nnnn2C2CCCC2)CC1 (configuration not stated),-11,5.2%,-4.1,-28,.,0.1
COc1ccc(C(=O)NC(=S)Nc2cccc(NC(=O)c3ccco3)c2)cc1[N+](=O)[O-],-17,?,-7.6,0,-11,0.9
CC(C)c1ccc2c(c1)CC[C@H]1[C@](C)(CN)CCC[C@]21C,2&5,-0.6%&2.1%,-2.7&4.0,1&-5,1&14,4.7&0.0
O=C1NC(=S)NC1Cc1ccc(O)cc1 (configuration not stated),-1,-0.3%,-7.1,-1,-6,-0.1
CCOC(=O)c1ccc(N2C(=O)C3CCCN3C2=S)cc1 (configuration not stated),2,29%,14,-1,-3,1.8
CC1(Cc2ccccc2Cl)C(=O)Nc2cc(-c3ccccc3Cl)ccc21 (configuration not stated),-5,4.1%,2.4,1,.,-0.3
O=C(CNCCO)NC12CC3CC(CC(C3)C1)C2,4,0.7%,0.7,-1,-2,0.5
OC(COc1ccc(Cl)cc1)CSc1ccccn1 (configuration not stated),3,2.1%,0.1,.,16,0.3
COc1ccccc1/C=C/C(=O)NNC(=O)c1cccs1,-1,2.4%,-0.1,3,5,-0.6
COc1ccc(OC)c(S(=O)(=O)NC(N)=NCCc2ccccc2)c1,10,-1.3%,-3.2,.,-12,0.6
CC(C)NC(=S)NCc1cccnc1,10,1.2%,-1.5,1,13,0.1
COCCCn1cc(CN2CC(N(C)C)CS2(=O)=O)nn1 (configuration not stated),16,0.2%,.,-10,.,-0.4
O=C(c1nc2ccc(Cl)cn2c1CNCCc1cnccn1)N1CCCCCCC1,4,0.8%,-2.6,10,15,1.1
CCn1ccc(C(=O)NC2=C(C#N)CCC2)n1,3,4.1%,-2.6,4,7,-0.6
Cn1c(NC(=O)/C=C\c2ccccc2)cc(=O)n(C)c1=O,-1,2.1%,-3.9,-20,12,0.6
CCC1(CC)NC(=O)N(Cc2nc3ccccc3s2)C1=O,2,4.3%,-4.7,-5,6,2.4
Cc1nn(-c2ccccc2)c(Cl)c1/C=N/Nc1ccc(Cl)c(C(=O)O)c1,?,-1.2%,3.8,-6,12,-0.3
Cc1ccc(CNS(=O)(=O)c2ccc(F)c(F)c2)n1C,9,-0.4%,0.9,-1,12,0.1
COC(=O)c1cc(OC)c(OC)cc1NCC(=O)Nc1ccc(OC)c(OC)c1,?,7.5%,5.1,-27,-14,0.8
O=C1c2ccccc2C(Nc2ccc(Cl)cn2)N1Cc1ccccc1 (configuration not stated),3,8.9%,-5.4,1,-2,0.0
CC(=O)NC1C(=O)N=C(SC(C)C(=O)Nc2cccc(Cl)c2)NC1=O (configuration not stated),1,-1.1%,0.6,3,15,1.1
CCc1cccc(CC)c1NC(=S)NCCc1c(C)[nH]c2ccccc12,-22,3.1%,-1.5,-23,16,0.5
Cc1cc(C(=O)Nc2cccc([N+](=O)[O-])c2)c(C)o1,-7,6.3%,2.4,-1,5,-0.1
COc1ccc(N2C(=O)CC(N3CCN(c4nc5ccccc5s4)CC3)C2=O)cc1 (configuration not stated),-2,0.2%[38.3 µM],-2.7,-6,2,0.3
Cc1ccc(C)c(Cn2nnc3c(=O)[nH]c(C4CCCN(C(=O)C5CCCCC5)C4)nc32)c1 (configuration not stated),0,-0.6%,-2.4,-16,-5,1.3
O=S(=O)(/C=C/c1ccccc1)NC1CCCCCCC1,10,8.1%,0.1,3,22,0.1
O=C(NC1CCCC1)C1CCN(S(=O)(=O)N2CCCCC2)CC1,20,-0.5%,4.1,0,?,0.5
CN1CCN(C(=O)Nc2cccc(Cl)c2)c2cccnc21,.,2.0%,.,.,2,0.9
CC(C)(C)c1ccc(C(=O)NCC(=O)OCC(=O)NC(=O)NC2CCCC2)cc1,-1,0.3%,-1.8,0,0,2.1
CC1=C/C(=N\NC(=S)Nc2cccnc2)CC(C)(C)C1,15,4.0%,-5.6,17,36,-0.8
Cc1noc(C)c1C(=O)OCC(=O)N1CCN(S(=O)(=O)c2ccc3ccccc3c2)CC1,-17,1.5%,-0.6,-15,7,2.3
Fc1ccccc1NC(=S)NNc1ncc(C(F)(F)F)cc1Cl,0,16µM*,-10,-1,-8,1.2
CC(C)Sc1ncc(Cl)c(C(=O)Nc2ccc(S(=O)(=O)N3CCCCC3)cc2)n1,.,1.9%,.,.,8,-0.4
CCOCN(C(=O)Cn1c(COC)nc2ccccc21)c1c(C)cccc1CC,0,-0.5%&-1.6%,-2.9,12,-24&7,2.9&-0.8
Cc1ccc2cc(CN(CC3CCCO3)S(=O)(=O)c3ccccc3)c3nnnn3c2c1 (configuration not stated),0,4.2%[38.3 µM],-1.0,-3,2,0.1
C#CCOCCOCCOCCNc1nc(N2CCN(C(=O)[C@H](CCC(=O)O)n3cc(C(N)CO)nn3)CC2)nc(N2CCN(C(=O)[C@H](CCC(=O)O)n3cc(C(N)[C@H](C)CC)nn3)CC2)n1 (some centres not stated),-24,0.7%,-2.2,?,-6,-0.5
Cn1nnc(NC(=S)NC(=O)c2cccc3c(Br)cccc23)n1,-1,0.0%,-9.3,3,13,-0.8
O=C(O)c1cc2c(s1)-c1ccccc1OC2,3,0.7%,-1.0,5,2,-0.4
NS(=O)(=O)c1cccc(NC(=O)Cn2cnc3ccccc3c2=O)c1,6,11µM*,1.7,-2,-7,0.7
CCOC(=O)C1CCN(C(=O)Cn2c(=O)oc3cc(S(=O)(=O)N4CCC(C)CC4)ccc32)CC1,.,4.2%,.,.,12,0.7
CC(=O)OC(CC(=O)O)C[N+](C)(C)C (configuration not stated),2,2.5%,2.5,10,-2,-0.2
CCSc1nnc(-c2cccc(S(=O)(=O)N(C)C)c2)n1-c1cc(OC)ccc1OC,-2,7.9%[38.3 µM],-2.8,-4,-7,2.3
COCCCNc1nc2nonc2nc1N(C)CC1CCCN1C (configuration not stated),-3,1.2%,-4.5,-9,7,-0.4
Cn1nnnc1Sc1c(Cl)cccc1[N+](=O)[O-],1,-1.4%,-2.1,17,6,1.1
CCOc1ccc(-c2cn(-c3cccc(SC)c3)c(=O)[nH]2)cc1,0,3.1%,-2.3,0,-3,2.3
CC(=O)N1c2ccc(S(=O)(=O)N3CCC(C(=O)Nc4cccc(Cl)c4C)CC3)cc2CC1C (configuration not stated),.,0.3%,.,.,-16,0.6
Cc1ccc(S(=O)(=O)N2CCN(C(=O)c3cc(S(=O)(=O)N4CCOCC4)ccc3F)CC2)cc1,2,-1.1%,-3.1,3,-6,0.2
COc1cc(CN2CCCC(C)C2)cc([N+](=O)[O-])c1O (configuration not stated),-11,5.9%[38.3 µM],-2.6,-6,-7,0.2
CC1CCN(c2nc(N(C)c3ccccc3)nc(N)c2[N+](=O)[O-])CC1,-16,13%,-1.8,-13,-8,0.6

# The list continues.
SMILES,Six1-Eya2 inh,PINK1 expr mod,D2 ag,CtBP-E1A inh,TRPML1 blocker,TRPML1 agonist
COc1ccc(CCNC(=O)CCCn2c(=O)c3cccn3c3cccnc32)c(OC)c1,5,11%,5.7,2,21,-1.0
CCCC(C(=O)NC(C)(C)CC)N(CC1CCCO1)C(=O)CNS(=O)(=O)c1ccc(F)cc1 (configuration not stated),8,0.4%,-3.5,4,2,-0.5
COc1cc2c(cc1OC)CN(CC(=O)Nc1ccc(C)c(C)c1)CC2,-12,0.6%,-11,0,.,.
CCCc1c(C(=O)N/N=C/C=C/c2ccccc2)nnn1-c1nonc1N,11,6.3%,-1.0,0,5,0.4
O=C(c1nc2ncccn2n1)N1CCN(c2ccccc2)CC1,-2,-1.6%,-1.4,3,3,-1.1
Cc1ccc(Cl)cc1NC(=O)Cn1c(=O)cc(C)c2c(C)nn(C)c21,.,6.8%,.,.,0,-0.4
O=C(Nc1cccc(OCC(=O)N2CCOCC2)c1)c1ccc(C(F)(F)F)cc1,-1,-0.2%,5.1,9,31,-0.3
CC(C)OCC(O)CN1CCN(CC(O)COc2ccc3c(c2)OCO3)CC1 (configuration not stated),1,4.3%[38.3 µM],0.5,-1,-6,-0.3
Cc1ccc(OCc2nc(C#N)c(N3CCCCC3)o2)cc1,-17,3.1%,-2.2,-26,-1,3.7
COC(=O)CN1C(=S)N(Cc2ccccc2)C(=O)C1CC(=O)Nc1ccc(Br)cc1 (configuration not stated),-9,?,0.1,1,-4,0.9

# Compound activity from PubChem.
